YB-1 expr inh: YB-1 expression inhibition; U2OS, qRT-PCR YB-1 vs CDIP delta delta Cp, 16 h; stronger effect = higher value; zero = DMSO, each unit about twofold; delta delta Cp (YB-1 minus CDIP) (no concentration beside the values); 0.37% of 30,000 active; AID 434959;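 active means delta delta Cp rounded down to an integer at or above 3, about 3 SD of DMSO wells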;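 further: higher means less YB-1 transcript or more CDIP transcript relative to DMSO; stock transfer was 100 nL into about 100 µL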
PD-1 reverse act: activators reversing PD-1 mediated T-cell inhibition; primary human CD4 T cells, PD-L1 beads, CellTiter-Glo 96 h; activation, % (concentration not given with the values); 29,000 tested, under 10 active;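 active means replicate mean of 50% or more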;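 further: 0% = median vehicle wells and 100% = positive control; 100 nL library stock added to about 50 µL; numbers are from one replicate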
Hedgehog inh: Sonic Hedgehog pathway inhibition | 2.1% of 22,000 active | AID 2313 | Shh-LIGHT2 Gli-luciferase reporter, 30 h | inhibition, % (concentration not given with the values);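 active means replicate mean of 65% or more; inconclusive means mean lower but half the replicates past it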;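 further: pathway switched on by Shh-conditioned medium diluted 1 in 25 in low serum; 100 nL library stock added to about 40 µL; 0% = median of neutral wells and 100% = positive control level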
MITF inhib: inhibitors of MITF; TRPM1 promoter luciferase, luminescence, 24 h; inhibition, % (no concentration beside the values); 0.28% of 37,000 active;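 active means most replicates at 85% or more, or half of them and the mean; inconclusive means half reach 85% but not the mean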;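 further: human melanocyte line stably carrying TRPM1 promoter luciferase reporter; 0% = vehicle wells and 100% = a positive control; the first replicate is given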
Starred values were filed as active, the others as inactive; u = inconclusive; x = no result given.

smiles | PD-1 reverse act | YB-1 expr inh | Hedgehog inh | MITF inhib
NNC(=O)C1C(C(=O)NN)C1c1ccccc1 (stereo not drawn) | 0.7 | -0.26 | -21 | -1
NNC(=O)c1cc(-c2ccccc2)n[nH]1 | 0.0 | 0.53 | -18 | 3
COc1ccc(S(=O)(=O)N(C)C[C@H]2Oc3ccc(NC(=O)CCCN(C)C)cc3CC(=O)N([C@H](C)CO)C[C@H]2C)cc1 | x | 0.091 | -12 | -22
Cc1noc(C)c1NC(=O)N(C)C[C@H]1Oc2ccc(NC(=O)NC3CCCCC3)cc2C(=O)N([C@H](C)CO)C[C@@H]1C | 0.9 | 0.053 | -2 | -10
C=CCC1OC(=O)CCNC(=O)C(C)N(C)C(=O)C(C(C)C)N(C)C(=O)C(C(C)CC)NC(=O)C2CCCN2C1=O (stereo not drawn) | 0.6 | -0.43 | 38 | -66
C[C@@H]1CCCCO[C@H](CN(C)C(=O)Nc2cccc3ccccc23)[C@@H](C)CN([C@H](C)CO)C(=O)c2cc(NS(=O)(=O)c3cccs3)ccc2O1 | -1.8 | 0.016 | u | 12
C[C@@H]1CN([C@@H](C)CO)C(=O)c2cc(NS(=O)(=O)c3cn(C)cn3)ccc2O[C@H]1CN(C)C(=O)NC1CCCCC1 | 0.2 | 0.32 | 14 | -7
Cc1noc(C)c1NC(=O)Nc1ccc2c(c1)C(=O)N([C@H](C)CO)C[C@H](C)[C@H](CN(C)Cc1ccc(-c3ccccc3)cc1)O2 | -0.4 | 0.36 | x | 4
COc1ccc(S(=O)(=O)Nc2ccc3c(c2)C(=O)N([C@H](C)CO)C[C@H](C)[C@H](CN(C)C(=O)Nc2cccc4ccccc24)OCCCC[C@@H](C)O3)cc1 | 0.1 | 0.18 | 4 | 16
Cc1ccc(S(=O)(=O)Nc2cccc3c2O[C@@H](CN(C)C(=O)Nc2c(C)noc2C)[C@H](C)CN([C@H](C)CO)C3=O)cc1 | x | -0.16 | 12 | 5
C[C@@H]1CN([C@@H](C)CO)C(=O)c2cccc(NC(=O)C3CCOCC3)c2O[C@@H]1CN(C)C(=O)Nc1ccc2c(c1)OCO2 | 1.2 | 0.053 | 7 | 4
Cc1ccc(OC(=O)c2ccccc2)c(-n2nc3ccccc3n2)c1 | 0.0 | -0.1 | x | -23
Cc1ccc(S(=O)(=O)Nc2ccc3c(c2)C(=O)N([C@H](C)CO)C[C@H](C)[C@@H](CN(C)C(=O)CCCN(C)C)OCCCC[C@@H](C)O3)cc1 | x | 0.075 | -11 | -3
C[C@H]1CN([C@@H](C)CO)C(=O)Cc2cc(NC(=O)CCC(F)(F)F)ccc2O[C@@H]1CN(C)C(=O)Nc1ccccc1 | 0.4 | 0.32 | -54 | -13
C[C@H](CO)N1C[C@H](C)[C@@H](CN(C)C(=O)Nc2ccccc2)Oc2c(NS(=O)(=O)c3cn(C)cn3)cccc2C1=O | 0.3 | 0.061 | -27 | -9
CCOc1ccc(S(=O)(=O)Nc2nc3ccccc3nc2Nc2ccccc2)cc1 | -0.7 | -0.25 | u | 1
CC(C)NC(=O)Nc1ccc2c(c1)C(=O)N([C@H](C)CO)C[C@H](C)[C@@H](CN(C)S(=O)(=O)c1ccccc1)OCCCC[C@@H](C)O2 | 0.1 | 0.096 | x | -8
CSc1cccc(NC(=O)CN(c2ccc(F)c(Cl)c2)S(C)(=O)=O)c1 | -0.8 | x | x | 16
COc1ccc(NC(=O)N(C)C[C@@H]2Oc3ccc(N(C)C)cc3CC(=O)N([C@H](C)CO)C[C@H]2C)cc1 | 1.9 | 0.48 | 12 | 0
Cc1noc(C)c1NC(=O)N(C)C[C@@H]1Oc2ccc(NC(=O)Nc3ccccc3)cc2C(=O)N([C@@H](C)CO)C[C@@H]1C | 0.0 | -0.75 | -15 | -6
C[C@H]1CN([C@@H](C)CO)C(=O)c2cccc(NC(=O)C3CCCCC3)c2O[C@@H]1CN(C)S(=O)(=O)c1cccs1 | x | 0.14 | -9 | -4
C[C@H](CO)N1C[C@H](C)[C@@H](CN(C)Cc2ccc(Cl)c(Cl)c2)Oc2c(NS(=O)(=O)c3ccc(Cl)cc3)cccc2C1=O | x | 0.075 | 11 | 0
C[C@H](CO)N1C[C@H](C)[C@@H](CN(C)Cc2ccc(Cl)c(Cl)c2)Oc2c(NC(=O)Nc3ccccc3)cccc2C1=O | -0.6 | -0.49 | -1 | 12
C[C@H]1CN([C@@H](C)CO)C(=O)Cc2cc(NC(=O)C3CCCCC3)ccc2O[C@H]1CN(C)Cc1ccc(Cl)c(Cl)c1 | -1.4 | -0.25 | 35 | 15
Cn1c(SCC(=O)Nc2ccc(S(N)(=O)=O)cc2)nnc1-c1ccccc1Cl | 1.6 | x | x | -4

Ordered by molar mass (ascending): 6 of the compounds above.
smiles | PD-1 reverse act | YB-1 expr inh | Hedgehog inh | MITF inhib
CSc1cccc(NC(=O)CN(c2ccc(F)c(Cl)c2)S(C)(=O)=O)c1 | -0.8 | x | x | 16
C=CCC1OC(=O)CCNC(=O)C(C)N(C)C(=O)C(C(C)C)N(C)C(=O)C(C(C)CC)NC(=O)C2CCCN2C1=O (stereo not drawn) | 0.6 | -0.43 | 38 | -66
C[C@H]1CN([C@@H](C)CO)C(=O)Cc2cc(NC(=O)C3CCCCC3)ccc2O[C@H]1CN(C)Cc1ccc(Cl)c(Cl)c1 | -1.4 | -0.25 | 35 | 15
COc1ccc(S(=O)(=O)N(C)C[C@H]2Oc3ccc(NC(=O)CCCN(C)C)cc3CC(=O)N([C@H](C)CO)C[C@H]2C)cc1 | x | 0.091 | -12 | -22
C[C@H](CO)N1C[C@H](C)[C@@H](CN(C)Cc2ccc(Cl)c(Cl)c2)Oc2c(NS(=O)(=O)c3ccc(Cl)cc3)cccc2C1=O | x | 0.075 | 11 | 0
Cc1ccc(S(=O)(=O)Nc2ccc3c(c2)C(=O)N([C@H](C)CO)C[C@H](C)[C@@H](CN(C)C(=O)CCCN(C)C)OCCCC[C@@H](C)O3)cc1 | x | 0.075 | -11 | -3

(listing goes on)
smiles | PD-1 reverse act | YB-1 expr inh | Hedgehog inh | MITF inhib
C[C@@H]1CN([C@@H](C)CO)C(=O)Cc2cc(NC(=O)CCN3CCOCC3)ccc2O[C@@H]1CN(C)Cc1ccc(C(=O)Nc2ccccc2N)cc1 | -0.2 | -0.086 | x | -10
CC(=C\c1ccccc1)/C(C)=N/O | -0.4 | -0.15 | -25 | -29
CCOc1ccccc1Nc1nc(N)nc(CSc2nncn2C)n1 | 1.6 | x | x | -7
Cc1noc(C)c1NC(=O)Nc1ccc2c(c1)C(=O)N([C@H](C)CO)C[C@H](C)[C@@H](CN(C)C(=O)Nc1ccc(C(F)(F)F)cc1)O2 | 0.8 | 0.24 | -51 | -14
CNC[C@@H]1Oc2ccc(NC(=O)Nc3ccc(C(F)(F)F)cc3)cc2CC(=O)N([C@@H](C)CO)C[C@@H]1C | 1.0 | -0.062 | 0 | -29
Cc1cc(N(CC(=O)Nc2ccc(Cl)cc2C)S(C)(=O)=O)ccc1Br | 0.6 | x | x | -3
N#CNC(=Nc1ccc(Cl)cc1)Oc1ccccc1 | -1.5 | -0.22 | 15 | 6
C[C@@H]1CCCCO[C@@H](CN(C)C(=O)NC2CCCCC2)[C@@H](C)CN([C@H](C)CO)C(=O)c2cc(NS(=O)(=O)c3ccc(F)cc3)ccc2O1 | -1.9 | -0.042 | -4 | -7
COc1ccc(NC(=O)Nc2ccc3c(c2)CC(=O)N([C@@H](C)CO)C[C@H](C)[C@@H](CN(C)C(=O)NC(C)C)O3)cc1 | x | 0.21 | -16 | -2
Cc1nn(Cc2ccccc2Cl)c(C)c1NC(=O)C1CC(c2ccc(Cl)cc2)=NO1 (stereo not drawn) | 0.7 | x | x | 38
C[C@@H]1CN([C@H](C)CO)C(=O)c2cc(NC(=O)Nc3ccc(F)cc3)ccc2O[C@@H]1CN(C)C(=O)Nc1ccc(F)cc1 | x | 0.023 | 6 | -16
Cc1cc(C(=O)Nc2cccc3c2O[C@H](CN(C)Cc2ccc(Oc4ccccc4)cc2)[C@H](C)CN([C@@H](C)CO)C3=O)n(C)n1 | 0.8 | -0.37 | -20 | -16
C[C@H](CO)N1C[C@H](C)[C@H](CN(C)CC2CCCCC2)Oc2ccc(NC(=O)Cn3cnnn3)cc2CC1=O | 2.6 | 0.11 | -39 | -7
C[C@@H]1CN([C@@H](C)CO)C(=O)c2cccc(NC(=O)CCCCCC(=O)Nc3ccccc3N)c2O[C@@H]1CN(C)C | 0.1 | -0.04 | x | 2
Cc1cc(C(=O)Nc2cccc3c2O[C@H](CN(C)C(=O)Nc2c(C)noc2C)[C@@H](C)CN([C@H](C)CO)C3=O)n(C)n1 | 1.6 | 0.45 | -79 | -17
COc1ccc(NC(=O)N(C)C[C@H]2Oc3c(NC(=O)Nc4cccc5ccccc45)cccc3C(=O)N([C@H](C)CO)C[C@H]2C)cc1 | -1.4 | -0.21 | 1 | 0
C[C@H]1CN([C@@H](C)CO)C(=O)c2cccc(NC(=O)NC3CCCCC3)c2O[C@H]1CN(C)C(=O)Nc1ccc(C(F)(F)F)cc1 | -3.8 | -0.86 | 10 | 25
C[C@@H]1CCCCO[C@@H](CN(C)S(C)(=O)=O)[C@@H](C)CN([C@H](C)CO)C(=O)c2cc(NC(=O)Cc3ccccc3)ccc2O1 | 1.5 | -0.36 | 3 | 4
CS(=O)(=O)N(CC(=O)Nc1ccc(Br)cc1F)c1ccc(Cl)c(Cl)c1 | -1.2 | x | x | -9
C[C@@H]1CN([C@H](C)CO)C(=O)c2cccc(N(C)C)c2O[C@H]1CN(C)Cc1ccc(Cl)c(Cl)c1 | x | 0.063 | -52 | 5
Cc1noc(C)c1NC(=O)Nc1ccc2c(c1)CC(=O)N([C@@H](C)CO)C[C@H](C)[C@H](CN(C)Cc1ccc(Oc3ccccc3)cc1)O2 | -1.7 | 0.24 | 29 | 0
CCc1cc(Br)cc(C)c1NC(=O)CSc1nnc(-c2ccncc2)n1-c1ccccc1 | -2.5 | x | x | 23
Cc1ccccc1NC(=O)C(=O)NCc1ccccn1 | 1.8 | x | x | -50
C[C@H]1CN([C@@H](C)CO)C(=O)Cc2cc(NS(=O)(=O)c3ccccc3)ccc2O[C@H]1CN(C)C | 0.1 | 0.21 | 2 | 0
C[C@@H]1CN([C@H](C)CO)C(=O)Cc2cc(NC(=O)Cc3ccccc3)ccc2O[C@@H]1CN(C)C(=O)Nc1ccc2c(c1)OCO2 | 0.7 | -0.16 | -4 | -13
COC(=O)[C@H](c1ccccc1Cl)N1CCc2sccc2C1 | x | -0.62 | -23 | -10
COc1ccc(/C=C/C(=O)O[C@H]2[C@H](OC3C4O[C@]4(CO)[C@H]4C(O[C@@H]5O[C@H](CO)[C@@H](O)[C@H](O)[C@H]5O)OC=C[C@@H]34)O[C@@H](C)[C@H](O)[C@H]2O)cc1 (stereo partly drawn) | 1.7 | -0.43 | -30 | -11
c1ccc(CN2CCN(Cc3ccccc3)C2c2ccco2)cc1 | -0.7 | -0.024 | 44 | -15
Cc1ccc(S(=O)(=O)Nc2cccc3cccnc23)c([N+](=O)[O-])c1 | -15 | x | x | 52
C[C@H]1CN([C@@H](C)CO)C(=O)c2cccc(NS(=O)(=O)c3cn(C)cn3)c2O[C@@H]1CN(C)C(=O)NC1CCCCC1 | 1.1 | 1.2 | -35 | 7
NC(=O)c1ccccc1C(=O)c1ccccc1 | 6.9 | -0.058 | 42 | 4
C[C@H](CO)N1C[C@H](C)[C@@H](CN(C)S(=O)(=O)c2cccs2)Oc2c(NC(=O)c3nc4ccccc4s3)cccc2C1=O | -4.0 | 0.26 | -19 | 15
CC(C)(C)c1ccc(C(=O)NCCNc2ccccc2[N+](=O)[O-])cc1 | 0.0 | x | x | -67
O=C(CSc1n[nH]c(-c2ccccc2)n1)Nc1ccc(F)cc1 | -2.9 | x | x | 2
O=[N+]([O-])c1ccc(NCCNC(=S)Nc2ccc(Cl)cc2)nc1 | -0.5 | x | x | 48
C[C@H]1CN([C@@H](C)CO)C(=O)Cc2cc(NC(=O)C3CCCCC3)ccc2O[C@@H]1CN(C)Cc1ccccc1 | -0.3 | 0.14 | 8 | 1
Cc1ccc(S(=O)(=O)N(C)C[C@@H]2Oc3c(NS(=O)(=O)c4cn(C)cn4)cccc3C(=O)N([C@@H](C)CO)C[C@@H]2C)cc1 | x | 0.079 | 22 | -4
C[C@@H]1CCCCO[C@H](CN(C)CC2CCCCC2)[C@@H](C)CN([C@H](C)CO)C(=O)c2cc(NC(=O)c3ccccc3)ccc2O1 | 0.3 | 0.045 | -29 | -2
C[C@H]1CN([C@@H](C)CO)C(=O)c2cc(NC(=O)Cn3cnnn3)ccc2O[C@@H]1CN(C)C(=O)Nc1ccc2c(c1)OCO2 | 1.2 | 0.15 | -14 | 2
C[C@@H]1CN([C@H](C)CO)C(=O)Cc2cc(NC(=O)C3CCCCC3)ccc2O[C@@H]1CN(C)Cc1ccc(C(=O)Nc2ccccc2N)cc1 | 0.4 | -0.58 | x | -4

The list is partial; the hit share may differ from the screen's.
